Bioassay records (PubChem BioAssay)
Cruzain inh Det = inhibitors of Trypanosoma cruzi cruzain with detergent. P25779. purified cruzain, Z-FR-AMC fluorescence, 0.01% Triton. Potency, µM, for inactives: max response, negative = inhibition, usual class: inhibitors. 200,000 tested, 0.43% active. AID 1478; active = well fitted curve in the direction sought with a large enough effect; inconclusive = small, poorly fitted or top-dose-only effect, or another doubt; inactive = no such curve, though single readings can be large; an effect the other way counts as inactive or inconclusive;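 also: plate controls were neutral wells for no effect and buffer without enzyme for full effect; nearly all actives have a fitted effect of over 40% in size; top concentration of the series not given in the record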
Target sequence (P25779 123-467 limits assumed): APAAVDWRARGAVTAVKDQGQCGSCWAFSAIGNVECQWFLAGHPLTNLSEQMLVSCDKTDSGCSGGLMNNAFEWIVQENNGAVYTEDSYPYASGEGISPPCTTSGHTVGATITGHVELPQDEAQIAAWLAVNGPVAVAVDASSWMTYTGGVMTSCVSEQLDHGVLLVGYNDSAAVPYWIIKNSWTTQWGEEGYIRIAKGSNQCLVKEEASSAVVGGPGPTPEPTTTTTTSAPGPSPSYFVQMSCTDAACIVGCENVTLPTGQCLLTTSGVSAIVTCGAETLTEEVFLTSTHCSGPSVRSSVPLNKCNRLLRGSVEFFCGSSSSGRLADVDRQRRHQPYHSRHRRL
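Purified cruzain (1.5 nM final) was preincubated with compounds for 15 min at room temperature in 100 mM sodium acetate pH 5.5, 5 mM DTT, 0.01% Triton X-100. Reaction started with 2 uM Z-FR-AMC; AMC fluorescence change over 60 s gave activity.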
SARS PLP yeast = SARS-CoV PLP inhibition in yeast; S. cerevisiae expressing SARS-CoV PLpro, growth rescue; control for the full effect not named in the record; Potency, µM (doses to about 32.9 µM), without a hit: at the top dose activity, positive = growth rescue; 330,000 tested, 0.19% active; also: 0% is about no effect; nearly all actives have a fitted effect of over 55% in size; growth read by luminescence after 48 h
RE007 growth inh = less growth of the S. pombe RE007 Vpr strain. S. pombe RE007 Vpr strain, BacTiter-Glo ATP luminescence, 24 h; control for the full effect not named in the record. Potency, µM (top dose mostly 92.2 µM), without a hit: top-dose activity change, negative = less growth. 360,000 tested, 0.21% active; active = well fitted falling curve with a large enough effect; inconclusive = small, poorly fitted or top-dose-only effect; inactive = no such curve, though single readings can be large or run the other way;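 also: % is scaled to controls: 0 for no effect and ±100 for the full control effect; nearly all actives have a fitted effect of over 50% in size; the assay follows cell death caused by Vpr and the record does not say whether a fall means rescue or toxicity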
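Fission yeast strain RE007, carrying one chromosomally integrated HIV-1 vpr copy, was seeded at OD 0.01 in PMG+AL medium with 23 nL pinned compound. After 24 h at 30 °C and 99% humidity, viability was read by BacTiter-Glo luminescence.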
MARV entry inh = inhibitors of Marburg virus binding or cell entry | Marburg virus pseudotyped entry inhibition, cell reporter; control for the full effect not named in the record; about a third of the inactives were read at about 46 µM | Potency, µM (doses to about 37.8 µM), inactives show top-dose activity change, negative = inhibition, most hits filed as inhibitors | 300,000 tested, 1.8% active | AID 540276; active = well fitted inhibition curve with a large enough effect; inconclusive = small, poorly fitted or top-dose-only effect, or effect the other way; inactive = flat fitted curve, though single readings scatter; tested in HEK293 cells; about a fifth of its hits are not listed in these tables; also: % is scaled to controls: 0 for no effect and ±100 for the full control effect; luciferase read-out
Cruzain inh noDet = inhibitors of Trypanosoma cruzi cruzain without detergent. 200,000 tested, 2.3% active. Potency, µM, for inactives: max response, negative = inhibition, usual class: inhibitors. AID 1476. purified cruzain, Z-FR-AMC fluorescence, no detergent. P25779; active = well fitted curve in the direction sought with a large enough effect; inconclusive = small, poorly fitted or top-dose-only effect, or another doubt; inactive = no such curve, though single readings can be large; an effect the other way counts as inactive or inconclusive;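 also: plate controls were enzyme without inhibitor for no effect and buffer without enzyme for full effect; nearly all actives have a fitted effect of over 40% in size; top concentration of the series not given in the record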
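Purified cruzain at 1.5 nM, pre-incubated 15 min with compound at room temperature in 100 mM sodium acetate pH 5.5, 5 mM DTT, 0.00005% Triton X-100. Reaction started with 2 uM Z-FR-AMC; AMC fluorescence increase over 60 s gives rate.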
Lassa entry inh = Lassa virus entry inhibition. Potency, µM (titrated, usually from 37.9 µM), for the others: at the top dose activity change, negative = inhibition, actives largely listed as inhibitors. 300,000 tested, 1.2% active. Lassa virus pseudotype entry inhibition, cell reporter; control for the full effect not named in the record; active means well fitted inhibition curve with a large enough effect; inconclusive means small, poorly fitted or top-dose-only effect, or effect the other way; inactive means flat fitted curve, though single readings scatter; tested in HEK293 cells; also: % is scaled to controls: 0 for no effect and ±100 for the full control effect; nearly all actives have a fitted effect of over 50% in size; luciferase read-out
NS1 inh = influenza NS1 inhibition; AID 2326; Potency, µM (doses to about 46.1 µM), for the others: at the top dose activity, positive = more growth; S. cerevisiae slowed by influenza A NS1, growth recovery by OD600; 270,000 tested, 0.4% active; also: actives are rising curves; nearly all actives have a fitted effect of over 50% in size
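Read-out: OD600 growth recovery of NS1-expressing budding yeast. Cells grown overnight at 30C in -URA glucose medium, washed, resuspended and diluted 1:100 in 2% galactose assay medium, pH 6.0. Same strain lacking NS1 served as positive control.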
StopGo reporter = lowers the luciferase signal of an FMDV 2A StopGo reporter. human cells with a luciferase reporter of 2A StopGo recoding; control for the full effect not named in the record. Potency, µM (series often up to 57.9 µM), for inactives: at the top dose signal change, negative = less light. 410,000 tested, 1.2% active. AID 1159524; active = well fitted falling curve with a large enough effect; inconclusive = small, poorly fitted or top-dose-only effect; inactive = no such curve, though single readings can be large or run the other way; tested in HEK293T cells; also: % is scaled to controls: 0 for no effect and ±100 for the full control effect; nearly all actives have a fitted effect of over 45% in size; luciferase light after 4 h
Starred values were filed as active, the others as inactive; ? = inconclusive; · = not tested or not shown; & = joins results of further samples; [ ] = another dose, or the depositor's remark. Unless noted, calls follow the shape of the dose curve; as a rule, active means well fitted rising curve with a large enough effect; inconclusive means small, poorly fitted or top-dose-only effect; inactive means no such curve, though single readings can be large or run the other way. Potency is read from the fitted curve at half-maximal effect. Compounds were not picked by outcome; about 4.7% have a hit in one of these screens.

entry	mol	Cruzain inh noDet	RE007 growth inh	StopGo reporter	MARV entry inh	Lassa entry inh	Cruzain inh Det	SARS PLP yeast	NS1 inh
1	Cn1ccnc1C(O)c1cccc(OCc2ccccc2)c1 (centres undefined)	·	-12.5%	3.9%	·	·	·	10.7%	1.0%
2	COc1ccc(NC(=O)CSc2nnc3ccc(-c4ccccn4)nn23)cc1OC	·	0.4%	-9.4%	9.4%	24.0%	·	-2.3%	·
3	CCc1ccccc1NC(=O)Nc1cc(C(=O)NCc2ccc(C(C)C)cc2)ccc1N1CCCC1	-4.2%	·	-9.2%	·	?	0.3%	·	·
4	CC(=O)c1c(C)nc(-c2ccc(Cl)cc2)nc1N	·	-23.3%	22.4%	12.3%[46.1 µM]	29.3%[46.1 µM]	·	0.2%	·
5	O=C(CCC(=O)OCC(F)(F)C(F)F)Nc1ccc(Cl)cc1	-2.1%	-13.7%	8.4%	-24.1%	-4.8%	-4.1%	?	6.5%
6	Cc1cccc(C2(c3cccc(C)c3)CC2C(=O)NCC2CCCO2)c1 (centres undefined)	17.2%	-6.2%	34.7%[activator]	?	8.8%	-2.9%	4.6%	-15.3%
7	N#Cc1cccc(NC(=O)CSc2cccc[n+]2[O-])c1	·	13.2%	45.7%[activator]	3.7%[46.1 µM]	7.2%[46.1 µM]	·	-1.7%	·
8	O=C(CC1Nc2ccccc2NC1=O)Nc1cc(Cl)cc(Cl)c1 (centres undefined)	-4.4%	4.5%	-5.2%	-29.2%	12.2%	-11.5%	3.2%	20.5%
9	Cc1ccc(N2CC(C(=O)Nc3nnc(SCC(=O)NCC4CCCO4)s3)CC2=O)cc1 (centres undefined)	·	6.5%	8.6%	·	·	·	0.5%	-4.9%
10	CC(=O)c1cccc(NC(=O)Nc2ccc(C(=O)N3CCCC3)cc2)c1	7.5%	-0.7%	5.6%	-3.1%	6.3%	3.0%	6.9%	-3.1%
11	CC(=O)OC1CSc2nc3ccccc3n2C1 (centres undefined)	-10.6%	-2.3%	4.4%	2.2%	10.4%	-2.6%	12.3%	3.3%
12	COCCNC(=O)C(=O)N/N=C/c1ccc(C(=O)OC)cc1	·	-5.9%	22.1%	5.7%[46.1 µM]	-9.2%	·	0.0%	1.3%
13	Cc1ccc(C(=O)CSc2nnc(CNc3ccc(C)cc3C)n2Cc2ccco2)cc1	-1.3%	-6.8%	?	?	25.9µM*	-7.2%	-14.2%	-37.7%
14	COC(=O)C(Nc1nccs1)(OC)C(F)(F)F (centres undefined)	-4.5%	1.9%	-14.4%	1.2%	0.1%	1.2%	-0.6%	-1.2%
15	COc1ccc(C2OC(=O)c3ccccc3S2)cc1 (centres undefined)	-6.1%	0.3%	3.6%	?	3.5%	-2.2%	?	1.8%
16	O=C(CSc1nc2ccccc2c(=O)n1-c1ccc(SC(F)F)cc1)Nc1ccc(N2CCOCC2)cc1	·	17.2%	-8.0%	?	-0.1%[46.1 µM]	·	-0.1%	9.5%
17	O=C(CSc1ncccc1C(=O)O)NC12CC3CC(CC(C3)C1)C2	·	-7.1%	0.0%	21.1%[14.2 µM]	-1.1%	·	-0.8%	·
18	NC(=O)C1(N2CCCCC2)CCN(C(=O)Nc2ccc(C(F)(F)F)cc2)CC1	-3.3%	·	0.0%	15.2%[46.1 µM]	-0.1%[46.1 µM]	0.0%	·	·
19	CC(=O)c1c(C)[nH]c(C(=O)NCCCN2CCCC2)c1C	-6.9%	-10.2%	0.2%	9.1%	-4.4%	2.0%	-3.7%	2.7%
20	O=C(NNC(=O)C1CCCN(c2ncccn2)C1)c1ccc(F)cc1 (centres undefined)	18.4%	-14.2%	·	16.8%	4.9%	2.5%	1.1%	8.1%
21	COc1ccc(C2N(c3cc(Cl)ccc3OC)C(=O)C3CCCN32)cc1OC (centres undefined)	10.2%	-4.7%	-16.0%	-0.7%	·	1.9%	12.1%	?
22	CCOC(=O)CCSc1n[nH]c(=S)s1	·	2.0%	10.7%	0.9%&0.9%[46.1 µM]	8.0%	·	0.6%	-2.8%
23	Cc1ccc2nc(NC(=O)CN3C(=O)C4CC=CCC4C3=O)sc2c1 (centres undefined)	·	0.7%	22.1%	?	?	·	0.5%	·
24	CCn1c(SCC(=O)NC2CCCC2)nnc1-c1ccco1	·	2.0%	4.0%	11.7%[46.1 µM]	9.8%[46.1 µM]	·	0.2%	4.8%
25	CC1CCCCC1NC(=O)Cn1[nH]c(=O)c2ccccc2c1=O (centres undefined)	12.9%	-11.3%	-5.4%	?	-12.0%	5.3%	0.2%	-7.1%
26	CCc1ccc(NC(=O)CSc2cn(CC(=O)N3CCOCC3)c3ccccc23)cc1	?	·	13.3%	·	-0.7%[46.1 µM]	-0.1%	·	·
27	C=CCn1cnnc1SCC(=O)N(C1CCCCC1)C1CCS(=O)(=O)C1 (centres undefined)	·	5.3%	-8.3%	19.3%	17.7%	·	2.2%	·
28	COCCOC(=O)C1=C(C)NC(=O)NC1c1cccs1 (centres undefined)	-11.5%	1.5%	-19.2%	5.9%	9.3%	2.1%	3.5%	?
29	CCCSc1nnc(CSc2nc3nc(C)cc(C)n3n2)o1	3.5%	4.9%	·	-23.2%	-1.8%	3.4%	-8.2%	-5.8%
30	C/C(CC(=O)Nc1ccccc1-c1ccccc1)=N\NC(=O)COc1ccc(C)cc1Br	?	0.7%	-19.6%	?	?	-3.6%	-2.4%	3.9%
31	Cc1cc(C(F)F)n2nc(C(=O)Nc3cccc(Cl)c3C)nc2n1	-15.0%	·	-10.1%	?	?	-3.4%	·	·
32	O=C(CCn1ccc([N+](=O)[O-])n1)NC1CCCCCC1	-6.7%	9.2%	-3.6%	-0.8%	7.2%	-4.9%	-8.7%	1.8%
33	COc1cc(NC(=O)c2ccc(NC3=NC4CS(=O)(=O)CC4S3)cc2)cc(OC)c1 (centres undefined)	·	12.4%	-12.4%	·	·	·	5.7%	-5.6%
34	O=C(COC(=O)CCC(=O)c1ccc(F)cc1)Nc1ccccc1	·	-5.3%	20.8%	2.3%[46.1 µM]	-7.1%	·	-3.4%	-1.4%
35	Cc1cc(C)nc(N/C(=N\S(=O)(=O)Cc2ccccc2)Nc2cccc(Cl)c2C)n1	-3.1%	16.0%	0.0%	14.1%	-6.4%	3.6%	6.1%	-0.6%
36	COC(=O)C1=C(C(=O)OC)C2OC1c1cc3ccccc3cc12	·	35.5µM*	28.2µM*	?	-12.4%	·	·	·
37	O=C(N/N=C/c1ccc(N2CCOCC2)cc1)c1ccccc1OCCOc1ccccc1	·	-13.5%	?	?	?	·	-2.7%	·
38	COc1ccc(CNc2nc3ccccc3n2C)c(OC)c1	·	-16.4%	-2.3%	-22.8%	-27.3%	·	-0.8%	0.5%
39	CCc1cccc(C)c1NC(=O)c1cc(S(=O)(=O)N2CCCCCC2)cn1C	-4.5%	·	?	·	4.0%[46.1 µM]	-1.3%	·	·
40	COc1ccc(C(=O)COC(=O)/C=C/c2ccccc2[N+](=O)[O-])cc1	·	1.3%	0.6%	-0.1%	7.7%	·	-0.2%	·
41	CS(=O)(=O)Nc1ccc(C(=O)NCc2ccccn2)cc1	-1.8%	3.3%	0.0%	18.1%	1.7%	4.5%	7.8%	-5.0%
42	COc1ccc(NC(=S)Nc2cc(S(=O)(=O)N3CCCCC3)ccc2OC)cc1	2.2%	·	·	-24.8%	-2.9%	-9.8%	-7.6%	10.9%
43	O=C(COC(=O)C1Cc2ccccc2CN1C(=O)c1ccccc1Cl)Nc1ccc(N2CCOCC2)cc1 (centres undefined)	?	1.5%	-16.8%	-35.6%	2.6%	-6.5%	12.1%	27.2%
44	O=[N+]([O-])c1cc([N+](=O)[O-])c2n[nH]c(-c3ccccc3)c2c1	·	-21.5%	-10.4%	?	3.7%	·	-0.2%	·
45	Cc1cccc(-c2nnc(SCC(=O)Nc3cccc(C(=O)N4CCOCC4)c3)n2C)c1	0.1%	2.2%	3.3%	?	4.7%	1.3%	-10.6%	11.0%
46	C=CCN(C)NC(=O)Nc1ccccc1	·	-18.8%	5.4%	3.5%	0.2%	·	5.2%	2.9%
47	Cc1ccc(N2C(=O)c3ccccc3C2(O)c2ncc[nH]2)cc1 (centres undefined)	-6.1%	24.4%	9.0%	?	-5.8%	7.2%	0.1%	0.7%
48	CCOc1ccc(CCNC(=O)c2cccc(S(=O)(=O)N3CCOCC3)c2)cc1OCC	·	-17.0%	-22.3%	1.7%	-21.4%	·	-0.9%	·
49	O=C(CSC1=NCCS1)NC1CCCC1	-2.9%	-8.1%	-9.1%	4.6%	4.2%	3.2%	-1.0%	-2.4%
50	COc1cccc(NC(=S)N(Cc2ccc(C(=O)O)cc2)Cc2ccc(OC)c(OC)c2)c1	·	12.4%	8.7%	17.7%[46.1 µM]	-11.9%[46.1 µM]	·	2.6%	·
51	COc1cc2[nH]c(=S)nc(NCc3ccccn3)c2cc1OC	·	4.7%	-14.2%	?	0.8%	·	0.3%	·

Shown with values under each structure: 3 of the compounds above.
Order of values – Cruzain inh noDet	RE007 growth inh	StopGo reporter	MARV entry inh	Lassa entry inh	Cruzain inh Det	SARS PLP yeast	NS1 inh
[26] CCc1ccc(NC(=O)CSc2cn(CC(=O)N3CCOCC3)c3ccccc23)cc1
  ?	·	13.3%	·	-0.7%[46.1 µM]	-0.1%	·	·
[49] O=C(CSC1=NCCS1)NC1CCCC1
  -2.9%	-8.1%	-9.1%	4.6%	4.2%	3.2%	-1.0%	-2.4%
[35] Cc1cc(C)nc(N/C(=N\S(=O)(=O)Cc2ccccc2)Nc2cccc(Cl)c2C)n1
  -3.1%	16.0%	0.0%	14.1%	-6.4%	3.6%	6.1%	-0.6%
